# Screening data as filed in PubChem BioAssay.
# D2 PAM – Beta-Arrestin HTS for Positive Allosteric Modulators of the Human D2 Dopamine Receptor: Potentiators | D(2) dopamine receptor (Homo sapiens), P14416 | DiscoveRx D2 beta-arrestin cells, luminescence, 90 min; 100% = 57 uM dopamine signal | potentiation, % (no concentration beside the values) | hit rate 0.23% among 360,000; active = potentiation of 50% or more; inconclusive = 30% to 50%; inactive = 30% or less;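 note: compound concentration not given in the record; tested on top of an EC20 dose of dopamine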
# Target sequence (P14416 whole entry, looked up): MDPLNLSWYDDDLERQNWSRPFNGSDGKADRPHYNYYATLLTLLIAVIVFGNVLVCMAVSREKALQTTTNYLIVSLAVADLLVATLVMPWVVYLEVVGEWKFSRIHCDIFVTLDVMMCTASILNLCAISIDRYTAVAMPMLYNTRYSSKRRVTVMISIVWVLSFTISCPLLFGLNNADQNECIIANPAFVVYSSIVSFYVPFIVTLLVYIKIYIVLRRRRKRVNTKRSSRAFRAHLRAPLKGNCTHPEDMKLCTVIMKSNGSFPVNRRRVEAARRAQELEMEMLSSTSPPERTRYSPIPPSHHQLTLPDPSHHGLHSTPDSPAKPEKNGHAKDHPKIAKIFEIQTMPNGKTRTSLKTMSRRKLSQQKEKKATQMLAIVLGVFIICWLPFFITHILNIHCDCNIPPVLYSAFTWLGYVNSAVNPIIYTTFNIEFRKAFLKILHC
#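 PathHunter D2 cells, attached overnight at 37 deg C, received compound in DMSO plus dopamine at EC20 (50 nM final) for 90 min at 37 deg C. Beta-arrestin recruitment was read as luminescence after 1 h with detection reagent at ambient temperature.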
# TRPML1 ag – qHTS for Agonists of the Human Mucolipin Transient Receptor Potential 1 (TRPML1). Mucolipin-1 (Homo sapiens), Q9GZU1. TRPML1-expressing cells, Ca2+ dye fluorescence, FDSS; host cell line not named in the record; reference of the full effect not given here. activation, % (test concentration not listed). hit rate 0.12% among 410,000. AID 624414, 2012; in the data active = activation above about 50%; inconclusive = about 30% to 50%; inactive = below about 30%; note: 0% is about no effect; the text of the record puts the active cut at 80%
# Target sequence (Q9GZU1 whole entry, looked up): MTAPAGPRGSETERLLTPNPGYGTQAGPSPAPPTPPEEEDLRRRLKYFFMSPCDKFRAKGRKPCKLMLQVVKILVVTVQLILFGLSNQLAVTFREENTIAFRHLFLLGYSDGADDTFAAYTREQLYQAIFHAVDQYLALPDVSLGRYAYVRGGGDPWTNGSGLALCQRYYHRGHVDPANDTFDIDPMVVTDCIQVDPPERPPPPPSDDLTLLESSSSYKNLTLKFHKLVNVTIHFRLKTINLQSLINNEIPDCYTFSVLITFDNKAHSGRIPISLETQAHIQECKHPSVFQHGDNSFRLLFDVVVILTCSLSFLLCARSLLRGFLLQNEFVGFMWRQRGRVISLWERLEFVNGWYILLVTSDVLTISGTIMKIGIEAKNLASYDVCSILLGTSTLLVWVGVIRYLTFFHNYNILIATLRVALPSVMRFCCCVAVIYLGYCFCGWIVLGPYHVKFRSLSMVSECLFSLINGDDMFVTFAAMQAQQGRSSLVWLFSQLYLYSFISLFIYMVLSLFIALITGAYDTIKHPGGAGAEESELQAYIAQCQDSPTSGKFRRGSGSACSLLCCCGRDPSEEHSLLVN
#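 In this qHTS format, compounds were pin-transferred onto Ca8-dye-loaded TRPML1-DL cells induced with Tet overnight, and intracellular Ca2+ fluorescence was recorded kinetically for 110 s after a 10 s baseline. A subsequent 4uM final 54-4 (EC80) addition followed by a second 110 s read served as the antagonist phase.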
# Six1-Eya2 inh – qHTS Assay for Inhibitors of the Six1/Eya2 Interaction; Homeobox protein SIX1 (Homo sapiens) + Protein phosphatase EYA2 (Homo sapiens), …; AlphaScreen GST-Six1/His-Eya2 binding, biochemical; stronger effect = lower value; control for the full effect not named in the record; activity change, % (concentration not given with the values); hit rate 0.56% among 360,000; in the data active = activity change below about -65%; inconclusive = about -30% to -65%; inactive = above about -30%; note: % is set by controls: 0 for no effect and ±100 for the full control effect
#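 Homogeneous AlphaScreen proximity assay pairing GST-Six1 with His-tagged Eya2 (added as 5X mix: 250 nM and 500 nM) in 50 mM Tris pH 8.0, 300 mM NaCl, 1 mM TCEP. Glutathione donor and nickel acceptor beads; 1 h, 37 °C, dark.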
# D2 agonist – Beta-Arrestin HTS for Positive Allosteric Modulators of the Human D2 Dopamine Receptor: Agonists; D(2) dopamine receptor (Homo sapiens), P14416; DiscoveRx PathHunter D2 beta-arrestin, luminescence, 90 min; 100% = 57 uM dopamine signal; activation, % (no concentration beside the values); hit rate 0.084% among 360,000; in the data active = activation above about 40%; inconclusive = about 15% to 40%; inactive = below about 15%; note: compound concentration not given in the record; the text of the record calls up to 30% inactive
#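 Agonist mode: compounds alone added to overnight-plated D2 PathHunter cells for 90 min at 37 C, with 57 uM final dopamine (EC100) defining full response. Beta-arrestin recruitment detected by chemiluminescent reagent, read after 1 h at ambient temperature.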
# CtBP-E1A blk – qHTS Assay for Inhibitors of the CtBP/E1A Interaction. CtBP / adenovirus E1A interaction (AlphaScreen). AlphaScreen GST-E1A/His-CtBP binding, 1536-well; stronger effect = lower value; control for the full effect not named in the record. activity change, % (no concentration beside the values). hit rate 0.49% among 340,000. AID 651724, 2012; in the data active means activity change below about -65%; inconclusive means about -30% to -65%; inactive means above about -30%; note: % is set by controls: 0 for no effect and ±100 for the full control effect; compound concentration not given in the record
#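 Protein mix (5X: 125 nM each GST-E1A, His-CtBP) was incubated with pinned compound 2 h at 37 deg C in dark, in 50 mM Tris pH 8.0 buffer with 300 mM NaCl. Glutathione donor and nickel acceptor beads followed; AlphaScreen signal read after 1 h.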
# PINK1 expr mod – A Quantitative High throughput Screen to Identify Chemical Modulators of PINK1 Expression. hit rate 0.2% among 410,000. PINK1 immunofluorescence, high-content cytometry, 24 h. Potency, µM (titrated, usually from 76.6 µM), for the others: at the highest dose activation (PINK1 increase), actives largely listed as activators; active = well fitted activation curve with a large enough effect; inconclusive = small, poorly fitted or top-dose-only effect; inactive = flat fitted curve, though single readings scatter; cell line not stated here;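 note: potency is the fitted concentration of half-maximal effect; % of control where 0% means no effect; nearly all actives have a fitted effect of over 65% in size; a mitochondrial uncoupler was the plate control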
#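 Stable cell line, 250 cells/well, 12 h attachment; compounds pinned at 5 concentrations, 24 h; CCCP control. Fixed with nuclear dye, primary antibodies 12 h at 10 degrees C, secondary plus cell stain; laser-scanning cytometer read.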
# * = called active by the depositor; ? = inconclusive; . = no result given; & = joins results of further samples; [ ] = remark or other dose.
smiles,D2 PAM,TRPML1 ag,Six1-Eya2 inh,D2 agonist,CtBP-E1A blk,PINK1 expr mod
Cc1ccc(CNC(=O)C2CCC(CNc3c(N4CCOCC4)c(=O)c3=O)CC2)cc1 (configuration not stated),-1,0.1,3,3.9,2,0.5%
CC(NC(=O)c1cccnc1)C(c1cccs1)N1CCOCC1 (configuration not stated),-4,0.1,0,-2.3,21,1.2%
Cc1ccc(C)c(C(=O)CN2C(=O)NC3(CCCCCC3)C2=O)c1,-11,-0.6,0,-5.5,4,0.4%
CCOc1ccc(NC(=O)NCC2CCN(Cc3ccc(F)cc3)CC2)cc1,-18,.,-1,-6.1,-1,-0.6%
Nc1ccc(Oc2c(Cl)cccc2Cl)nc1,-12,-0.8,0,-3.8,.,1.8%
COCCNC(=O)C1(C)CCCN(C(=O)c2cccc(C(F)(F)F)c2)C1 (configuration not stated),-8,0.3,-4,-3.5,4,0.2%
COc1ccc(-c2[nH][nH]c(=O)c2NC(=O)c2ccccc2Br)cc1,-17,0.2,3,-7.6,-1,0.5%
O=C1[C@@H]2[C@@H]3C[C@@H]([C@H]4ON=C(c5ccc(Cl)cc5Cl)[C@@H]34)[C@@H]2C(=O)N1C1CCCCC1,-25,-0.4,2,-2.5,21,5.8%
O=C(CNC(=O)c1ccc(Br)o1)NNC(=O)c1ccccc1,4,0.2,-2,-5.6,12,1.7%
O=C(c1ccc2c(c1)OCCCO2)c1cccs1,-10,-0.3,6,-3.1,9,-0.5%[38.3 µM]
Cc1cccc(N2CC(c3nc4ccccc4n3C)CC2=O)c1C (configuration not stated),-3,-0.5,-3,-4.4,-6,0.3%
CCCS(=O)(=O)NC(=O)C1(C)CCN1C(=O)Cc1ccc(Cl)cc1Cl (configuration not stated),-4,-0.5,10,5.7,9,0.8%
O=C(COc1ccc(Cl)cc1Cl)NCCN1CCCCC1,-25,-0.4,-3,-3.6,-8,0.7%
Cn1c(=O)n(C)c2cc(NS(=O)(=O)c3ccc(Cl)s3)ccc21,1,2.2,-2,0.4,-11,5.5%
CCOC(=O)N1CCC(NC(=O)CN(c2ccc(C(C)C)cc2)S(=O)(=O)c2c(C)nn(C)c2C)CC1,8,-1.0,0,1.2,2,-0.5%
Cc1cc2c3c(c1)C1(SCC(=O)N1c1ccc(F)cc1)C(=O)N3C(C)(C)CC2C (configuration not stated),-18,1.6,2,-3.2,10,-2.2%[38.3 µM]
CCCCn1c(N)c(N(CC(C)C)C(=O)C2CCN(S(=O)(=O)c3ccc(C)cc3C)CC2)c(=O)[nH]c1=O,-16,-0.1,9,-2.2,?,-1.4%
CC1=C(C(=O)OCCC#N)C(c2cc3c(cc2Br)OCO3)NC(=O)N1 (configuration not stated),-15,-0.2,-11,-3.1,8,1.4%
COc1cccc(/C=N/NC(=O)CNC(=O)COc2ccccc2)c1O,-1,-0.5,-83*,-3.7,?,-0.4%
O=C(NC(=S)Nc1ccccc1O)c1ccc(-c2ccc(Cl)cc2)o1,-10,9.2,-7,-2.9,-6,0.5%
CN(C1CCCCC1)S(=O)(=O)c1ccc(SCC(=O)NC(C)(C)C)nc1,2,-0.5,3,1.0,8,3.0%
O=C(Nc1ncccn1)C1CCCCC1,-3,-0.1,-2,-4.9,6,0.7%
CC(=O)n1c2c(c3ccccc31)OC(N)=C(C#N)C2c1ccc(C(C)C)cc1 (configuration not stated),-4,1.6,-4,1.8,8,.
CCCNC(=O)C1(C)CCCN(C(=O)c2cc(F)cc(F)c2)C1 (configuration not stated),-10,0.1,7,-2.2,13,0.3%
O=C1NC[C@H](CC2CCCCC2)N(CCC23CC4CC(CC(C4)C2)C3)C1=O,.,2.3,-3,.,-13,0.1%
CCOC(=O)[C@]12CCC=C1N(Cc1cccc3ccccc13)C(=O)[C@H](CC(=O)NCc1ccccc1)C2,.,-0.6,-13,.,-2,-0.6%
O=C(COc1ccc(-c2nnco2)cc1)N1CCN(S(=O)(=O)c2ccc3ccccc3c2)CC1,24,-1.2,5,0.4,4,7.4%
CC(C)(C)C(=O)Nc1nc(-c2ccccc2)ns1,-4,-0.4,1,-4.8,12,4.2%[38.3 µM]
COc1ccccc1C(=O)NCC1CCN(c2ccc(S(=O)(=O)N3CCOCC3)cc2)CC1,0,-0.2,-2,1.5,8,-0.8%[38.3 µM]
O=C(NN1C(=O)NC2(CCCCC2)C1=O)c1ccc(-c2ccc(Cl)cc2)o1,-13,1.0,0,-0.9,-5,2.4%
O=C(Cc1ccccc1)N/N=C/c1ccccn1,-3,0.8,-5,0.8,-1,-4.5%[38.3 µM]
O=C(NCc1ccc(F)cc1)C(c1cccnc1)N(C(=O)c1csnn1)c1ccccc1 (configuration not stated),-3,1.3,5,-1.8,24,-1.6%
O=C1NC(=Nc2cccc(Cl)c2)SC1Cc1cccc(Cl)c1Cl (configuration not stated),-10,-0.3,3,-0.3,5,-5.5%[38.3 µM]
CCC1(CC)C(=O)C2=C3C1[C@H](C(=O)OC)C=C(C(=O)OC)C[C@H]3[C@H]1C(=O)N(Cc3ccccc3)C(=O)[C@H]1[C@H]2C (some centres not stated),-10,0.3&0.3,10,-3.5,.,1.0%
COc1ccc(/C=N/NS(=O)(=O)c2ccccc2)cc1OC,-11,0.6,2,-4.7,.,0.1%
COc1ccc(Cl)cc1S(=O)(=O)NCc1cccs1,-13,0.5,-5,-2.8,-1,-0.1%
C=CC[C@@H](CC(=O)N[C@H](CO)Cc1ccccc1)C(=O)N[C@H](C)COC(=O)[C@@H](CC=C)CC(=O)OC(C)(C)C,-7,-0.4,10,-1.7,2,-0.8%
COc1ccc(C(=O)NC2CCN(C(=O)NCc3ccccc3)CC2)cc1,-5,-0.2,1,4.5,3,0.0%
COc1cccc(C(=O)NC(C)C(c2cccs2)N2CCOCC2)c1 (configuration not stated),2,-0.7,3,-5.4,7,0.9%
CC(Sc1ccccn1)C(=O)NC1CCCC1 (configuration not stated),1,1.7,7,5.8,6,0.4%
Cc1sc2ncn(CC(=O)NCCCC(=O)N3CCCCC3)c(=O)c2c1C,-1,-0.1,7,-0.5,1,0.0%
O=C1CCN(CCCc2ccccc2)CCN1[C@H](CO)Cc1ccccc1,-24,0.8,4,-2.9,-12,-0.3%
CCCOc1ccccc1C1NC(=O)NC(C)=C1C(=O)OCc1ccccc1 (configuration not stated),0,1.0,-13,-3.3,0,-2.0%[38.3 µM]
Cc1ccc(NC(=O)CN(C)CCOc2ccccc2)c([N+](=O)[O-])c1,-5,3.5,?,-4.1,?,2.6%
COc1ccc(/C(N)=N/OC(=O)c2ccc([N+](=O)[O-])c(C)c2)cc1OC,-5,0.3,-4,1.7,.,3.4%
Nc1nc2c(F)cccc2s1,-13,-0.2,7,0.9,6,0.7%
COc1ccc(S(=O)(=O)N2CCN(C(=O)C3COc4ccccc4O3)CC2)cc1 (configuration not stated),-1,-0.5,-20,-1.6,4,-0.5%
COc1cc2cc(Oc3ccc4ccc(=O)oc4c3)c(=O)oc2cc1OC1OC(COC(=O)CC(C)(O)CC(=O)O)C(O)C(O)C1O (configuration not stated),-36,.,?,-4.0,?,0.4%
CC1=C(C(=O)N(C)C)CC(CC(=O)NCCc2ccccn2)C(=O)N1Cc1ccc(C(C)(C)C)cc1 (configuration not stated),3,-0.6,0,-7.5,7,0.8%
Cc1nnc(SCC(=O)c2c(N)n(C3CC3)c(=O)[nH]c2=O)n1C,-6,-0.8,18,-0.1,6,0.1%
CCOCCCNS(=O)(=O)c1ccc(-n2cnnn2)c(OC)c1,2,-0.6,25,-2.3,49,0.1%[38.3 µM]
Cc1ccc(CN2CCC2(C)C(=O)NC2CCc3ccccc32)cc1 (configuration not stated),-8,0.9,-2,2.1,1,3.7%
Cc1ccnc(NC(=O)CCC(=O)N(CC(=O)NCc2ccc(F)cc2)c2cccc(F)c2)c1,-11,-0.3,4,-2.5,5,4.8%
CCCC(=O)Nc1nc2c(c(=O)[nH]1)CCCC2,1,-0.3,3,-0.3,3,1.3%
CCCCn1c(=O)[nH]c(=O)c2c1ncn2Cc1ccco1,-7,1.5,0,1.7,5,-1.4%[38.3 µM]
O=c1c2ccccc2n(CC(O)CN2CCCCC2)c2ccccc12 (configuration not stated),-6,0.0,7,2.3,0,-1.0%
CCCCN(C)C(=O)c1ccc(Nc2nc(C(N)CCc3ccccc3)cs2)nc1 (configuration not stated),-13,0.4,-20,-3.7,?,-0.8%
Cc1ccc(NC(=O)c2ccco2)cc1NC(=O)CSc1nnc(-c2cccs2)n1C,0,0.1,-1,1.0,2,-0.4%[38.3 µM]
O=C(COc1ccc(Br)cc1F)N1CCN(c2ncccn2)CC1,-1,-0.6,12,-0.6,0,2.5%
CSc1cccc(N/C(=N/S(=O)(=O)c2ccccc2)NN)c1,-2,-1.2,-3,2.4,2,1.2%

# (cont.)
smiles,D2 PAM,TRPML1 ag,Six1-Eya2 inh,D2 agonist,CtBP-E1A blk,PINK1 expr mod
O=C(NC(=S)Nc1cccnc1Cl)c1ccco1,-23,-0.3,3,-6.8,.,0.1%
C[C@@H]1CCCCO[C@H](CN(C)Cc2ccc(C(=O)O)cc2)[C@@H](C)CN([C@H](C)CO)C(=O)c2cc(NC(=O)CCC(F)(F)F)ccc2O1,1,-0.5,-22,-7.8,2,2.5%
C=CCOc1ccccc1CN1CCC(CO)(CCOc2ccccc2)CC1,-10,-0.4,-3,-0.6,-1,4.6%
Cc1cc(C(=O)Nc2c(C)nn(Cc3ccccc3Cl)c2C)no1,-16,2.6,0,-3.1,0,-2.8%[38.3 µM]
Cc1nn(-c2ccccc2)c2c1C1(C(=O)N(C)c3ccccc31)N(c1ccccc1)C(=O)N2 (configuration not stated),-4,-1.2,0,-1.8,2,1.3%
CCOC(=O)c1oc2c(C)c(O)ccc2c(=O)c1-c1nncn1-c1ccccc1,-12,-0.1,1,-2.3,-6,13%[38.3 µM]
